GIV Gai3 FP – inhibitors of GIV GBA-motif binding to rat Galpha-i3 | percent of control (FP), % (no concentration beside the values) | P08753 | AID 1224905 | Galpha-i3/FITC-GIV peptide fluorescence polarization, 90 min; hits give low values; scaled: aluminum fluoride 0%, vehicle 100% | 210,000 tested, 0.42% active;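 active = replicate mean at 85% of control or lower, very high polarization wells dropped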;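 note: wells of about 15 µL received 100 nL stock; the first replicate is given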
Target sequence (P08753 whole entry, looked up): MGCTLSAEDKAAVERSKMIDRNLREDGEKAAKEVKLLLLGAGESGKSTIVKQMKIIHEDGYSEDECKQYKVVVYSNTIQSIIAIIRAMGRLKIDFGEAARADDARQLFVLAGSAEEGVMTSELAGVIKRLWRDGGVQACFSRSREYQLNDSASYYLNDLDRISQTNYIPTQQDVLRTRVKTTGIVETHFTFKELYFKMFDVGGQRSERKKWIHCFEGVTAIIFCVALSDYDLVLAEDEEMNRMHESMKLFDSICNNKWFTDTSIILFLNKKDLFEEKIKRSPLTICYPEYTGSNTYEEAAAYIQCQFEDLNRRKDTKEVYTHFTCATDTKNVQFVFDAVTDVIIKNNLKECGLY
* hit, by the source's call. These rows are one share of the data; rates above refer to the full screens.

molecule,GIV Gai3 FP
COc1ccc(CNCCC2(c3ccc(F)cc3)CCOC(C)(C)C2)cc1OC (centres undefined),108.6
CC(C)C(=O)NCCc1csc(C2CCN(C(=O)c3ccsc3)CC2)n1,96.0
CCOC(=O)c1c(S(=O)(=O)NCC(=O)NC2CCCCC2)c(C)n(CC)c1C,97.3
c1ccc2c(c1)ccc1nnc(-c3c[nH]c4ccccc34)n12,106.7
CCOC(=O)N1CCN(C(=O)c2ccc3c(=O)n(-c4ccccc4)c(SCc4cccc([N+](=O)[O-])c4)nc3c2)CC1,111.8
CCCS(=O)(=O)c1c(S(=O)(=O)CCC)c2cc(-c3ccncc3)ccn2c1C(=O)N/N=C/c1cccc([N+](=O)[O-])c1,107.9
CC(C)c1nnc2ccc(NC3CC3)nn12,102.9
COc1cc(OC)c(NC(=O)N2CCCC2c2cc(C)on2)cc1Cl (centres undefined),113.2
CN1CCN(Cc2c(O)ccc3c4c(c(=O)oc23)CCC4)CC1,110.0
O=C(Nc1ccc(N2CCOCC2)cc1)C1CCN(c2ncc(-c3ccccc3)cn2)CC1,104.6
Cc1nc(-c2cc(S(=O)(=O)NCCCc3ccccc3)c(C)s2)sc1C,105.8
CCc1nc(-c2csc(S(=O)(=O)N3CCC(C(=O)NC(C)C)CC3)c2)no1,111.6
CC1(C)CC(=O)C2=C(C1)OC1=C(C(=O)CC(C)(C)C1)C2c1cc(Br)ccc1O,104.9
O=c1c2ccccc2nc(SCc2ccccc2F)n1CC1COc2ccccc2O1 (centres undefined),156.4
CCCCOc1ccc2c(c1)C(=O)c1cc(OCCCC)ccc1-2,105.3
Brc1ccc(C2=Nc3cccc4cccc(c34)N2)o1,111.9
CC(=O)N1CCOc2cc(S(=O)(=O)N3CCCC3c3cc(C)on3)ccc21 (centres undefined),98.9
COc1ccc(N=C2SC(C(=O)N3CCN(c4ccccc4)CC3)CC(=O)N2C)cc1 (centres undefined),104.3
Cn1c(=O)n(C)c2cc(S(=O)(=O)Nc3ccc4c(c3)OCO4)ccc21,105.8
O=S(=O)(Cc1nc(-c2ccc3c(c2)OCO3)no1)c1ccc(Cl)s1,101.9
C=CCN1C=C(c2ccc3ccccc3n2)C(C#N)c2ccccc21 (centres undefined),116.4
Cc1cc(N2CCCC2)n2nc(CN3CCN(c4ccc(Cl)cc4)CC3)nc2n1,98.2
CCOC(=O)C1=C(C(=O)OCC)SC(=C2C(=S)C(C)(C)N(C(=O)C(F)(F)F)c3ccc(OCC)cc32)S1,113.6
Cc1ccc(-c2cc3n(n2)CCCN(S(=O)(=O)c2c(C)nn(C)c2C)C3)cc1C,102.1
COc1ccc(CCNC(=O)CCCn2c(=S)[nH]c3ccc(Br)cc3c2=O)cc1OC,103.9
COc1cc(OC)c(NC(=O)CCCNC(=O)Cn2cnc3sc4c(c3c2=O)CCCC4)cc1Cl,110.9
O=C1C(=O)N(c2nccs2)C(c2cccc([N+](=O)[O-])c2)/C1=C(/O)c1ccc(Cl)cc1 (centres undefined),106.4
O=C(Cn1nc2c(SC3CCCCC3)nccn2c1=O)Nc1ccc(Br)cc1F,109.5
C=CCN1C(=O)C2C3c4ccccc4C(C)(c4ccccc43)C2C1=O (centres undefined),111.6
Cc1noc(C)c1C1CCCN1S(C)(=O)=O (centres undefined),95.3
COc1ccc(C2/C(=C(\O)c3ccc(Br)cc3)C(=O)C(=O)N2c2cccc(C(F)(F)F)c2)cc1OC (centres undefined),110.2
Cc1sc(-c2cc(C(F)(F)F)on2)cc1S(=O)(=O)NC1CC1,102.1
O=C(CN1C2=NCCN2c2ccccc21)c1cccc2ccccc12,115.0
COc1ccc(/C=C2\SC(=S)N(CCC(=O)Nc3cccc(C(=O)O)c3)C2=O)cc1OC,112.6
COC(=O)COc1ccc(/C=C2/C(=O)NC(=O)N(c3ccc(C(C)(C)C)cc3)C2=O)cc1OC,113.1
CCN(CC)C(=O)CSc1nnc(-c2ccccc2)c(-c2ccccc2)n1,104.7
COC(=O)c1cccc(N2C(=O)/C(=C/c3ccc(-c4ccc(Br)cc4)o3)C=C2c2ccccc2)c1,129.4
O=C1COc2ccccc2N1Cc1nc(Cn2nnc3ccccc3c2=O)no1,111.0
COc1cc(OC)cc(C(=O)Oc2ccccc2NC2=NS(=O)(=O)c3ccccc32)c1,100.9
C=CCOC(=O)C1=C(C)OC(N)=C(C#N)C1c1cccc(Cl)c1 (centres undefined),112.4
CCc1ccc(C2=NN(c3ccccc3)C3(SC(C(C)=O)=NN3c3ccc(OC)cc3)c3ccccc32)cc1 (centres undefined),111.9
CCN1CCN(C(=O)CN(C)S(=O)(=O)c2cc3c(cc2Cl)NC(=O)CO3)CC1,115.7
O=C(Cn1cnc2c(sc3ncccc32)c1=O)NCc1ccccc1,100.8
COc1ccc(/C=C2/CCC/C(=C\c3ccc(OC)cc3)C2=O)cc1,120.9
COc1ccc(C2(c3ccc(OC)cc3)C=Cc3ccc4ccccc4c3O2)cc1,108.3
O=C(Nc1cccc(C(F)(F)F)c1)c1ccc(F)c(S(=O)(=O)N2CCN(c3ccccn3)CC2)c1,108.1
Fc1ccc(CNC2=NCCNC23CCCCC3)cc1,105.1
O=C(Nc1cccc(Cl)c1)C1CC1(c1ccccc1)c1ccccc1 (centres undefined),105.7
COc1ccc(C2/C(=C(\O)c3ccccc3)C(=O)C(=O)N2CCCN(C)C)c(OC)c1 (centres undefined),126.5
Cc1ccc(/C(O)=C2\C(=O)C(=O)N(CCCN3CCOCC3)C2c2ccc(C(C)C)cc2)cc1 (centres undefined),111.6
CCc1ccc(NC(=O)Nc2ccc(-c3cc4ccccc4[nH]3)cc2)cc1,97.3
COc1cc(OC)c(NC(=O)CSc2nc3ccccc3n2S(=O)(=O)c2ccc(Cl)cc2)cc1Cl,109.7
COc1ccc(-c2nc(-c3ccccc3)c(-c3ccc(Cl)cc3)[nH]2)cc1,121.7
COc1ccc(C(=O)Nc2ccc(S(=O)(=O)N3CCCCCC3)cc2)cc1,102.7
COc1ccc(OC)c(C(O)CN2CCC(c3nc(C)no3)CC2)c1 (centres undefined),104.8
COc1ccccc1-n1c(=S)[nH]c2[nH]ncc2c1=O,103.3
c1cc(-c2nnc(C3CCC3)o2)ccn1,100.8
CCC(=O)OCC12COC(c3ccccc3OC(=O)CC)C(C(C)=CC1C)C2C (centres undefined),104.1
O=C(c1nnc(-c2cc(S(=O)(=O)N3CCCC3)c[nH]2)o1)N1CCCC1,116.1
CCN(CC)CC(O)Cn1c2ccc(Br)cc2c2cc(Br)ccc21 (centres undefined),106.3

Four consecutive entries from above, quoted:
molecule,GIV Gai3 FP
CCc1ccc(C2=NN(c3ccccc3)C3(SC(C(C)=O)=NN3c3ccc(OC)cc3)c3ccccc32)cc1 (centres undefined),111.9
CCN1CCN(C(=O)CN(C)S(=O)(=O)c2cc3c(cc2Cl)NC(=O)CO3)CC1,115.7
O=C(Cn1cnc2c(sc3ncccc32)c1=O)NCc1ccccc1,100.8
COc1ccc(/C=C2/CCC/C(=C\c3ccc(OC)cc3)C2=O)cc1,120.9

The listing continues:
molecule,GIV Gai3 FP
CCS(=O)(=O)Nc1ccc(C(=O)N2CCCC(C(=O)NC3CCCCC3)C2)cc1 (centres undefined),112.0
CCOC(=O)C1C(=O)OC2(CCCCC2)C1C(=O)OCC (centres undefined),107.7
Cc1ccc(-c2c[n+](CC(=O)c3ccc(Br)cc3)c3n2CCCCC3)cc1,118.2
O=C(CCCOc1ccc(Cl)cc1)Nc1ccc2c(c1)OCCO2,105.8
CC1(C)Cc2ccccc2/C(=C/C(N)=O)N1,115.3
CC(=O)NC1C(OCc2ccccc2)OC2COC(C)(C)OC2C1O (centres undefined),107.6
O=C(NCCc1c[nH]c2ccc(Cl)cc12)C1CCN(c2ccncc2)CC1,106.4
O=C(CNC(=O)c1ccncc1)N/N=C/c1ccc([N+](=O)[O-])s1,107.0
COc1ccccc1N1C(=O)/C(=C/c2ccc(-c3ccc([N+](=O)[O-])cc3)o2)C=C1c1ccccc1,114.5
Cc1nnc(NC(=O)CSc2nnc3ccc(-c4ccc5c(c4)OCO5)nn23)s1,103.3
O=C(C1=COCCO1)N1CCN(c2nc3c(Cl)cccc3s2)CC1,98.6
O=C(NCCCN1CCOCC1)C1CCN(c2cncnc2N2CCCC2)CC1,111.9
CCCN1CCN(c2ncnc3sc(C(=O)Nc4cc(OC)c(OC)c(OC)c4)c(C)c23)CC1,97.4
COc1cc([C@@H]2[C@@H](C(=O)c3ccc(C)cc3)N3c4ccc(Cl)cc4C=C[C@@H]3C2(C#N)C#N)cc(OC)c1OC,104.7
CCOC(=O)c1c(C)c(CCC(=O)NC2CCN(Cc3ccccc3)CC2)n(C)c1C,107.9
O=C(Cn1nc(C(=O)N2CCCC2)c2ccccc21)NC1CCCC1,96.3
COc1cc(/C=C2\C(=O)N(c3ccc(S(N)(=O)=O)cc3)N=C2C(F)(F)F)ccc1OCc1ccc(Cl)cc1,99.0
CCOC(=O)C1(C)/C(=N/Nc2ccccc2OC)C(=O)C(=O)N1c1ccccc1 (centres undefined),107.2
CC(=O)Nc1c2c3c(cccc3n(C)c1=O)C(=O)c1ccccc1-2,93.6
Cc1cc(C(=O)N2CCN(C)CC2)c(C)n1CCN1CCCC1,106.1
CC1(C)CC(=O)C2=C(C1)c1c(ccc3ccccc13)NC2c1cc([N+](=O)[O-])c(N2CCCCC2)cc1N1CCCCC1 (centres undefined),102.6
Cc1nc(CN2C(=O)COc3ccc(S(=O)(=O)N4CCCC4)cc32)no1,109.5
O=C(Nc1ccc(Oc2ccc(Cl)c3ccccc23)c(Cl)c1)c1cc(Cl)ccc1O,107.9
O=C(CCC(=O)N1CCCN(c2nc3cccnc3s2)CC1)NCCC1=CCCCC1,108.8
COc1ccc(C2CC(C(F)(F)F)n3ncc(C(=O)N4CCN(c5ccccc5Cl)CC4)c3N2)cc1OC (centres undefined),111.8
CN1CCN(C(=O)C23CC4CCC2(C)C4(C)CO3)CC1 (centres undefined),112.9
O=C1c2ccccc2SC(c2ccccc2)N1C1CC1 (centres undefined),107.4
COC(=O)C1=CN(Cc2ccc(Cl)cc2)C=C(C(=O)OC)C1c1ccc(F)c(Br)c1,106.1
COc1ccc(NC(=O)c2ccc(N3CC4CC(C3)c3cccc(=O)n3C4)c(NC(=O)c3ccc(F)cc3)c2)cc1Cl (centres undefined),116.8
O=C1/C(=C/c2ccc(Cl)cc2)C=C(c2ccccc2)N1c1cccc([N+](=O)[O-])c1,107.3
COc1ccccc1NC(=O)c1sc(=S)n(-c2ccc(C)cc2C)c1N,110.3
COc1ccc(N2CC(O)(c3ccc(OC)cc3)[N+]3=C2CCCC3)cc1 (centres undefined),110.0
CCCCCC(=O)N1c2ccccc2NC2=C(C(=O)CC(C)(C)C2)C1c1cccs1 (centres undefined),102.0
CCOC(=O)C1=C(C)NC2=C(C(=O)C(C(=O)OCC)C(c3ccccc3OC)C2)C1c1cccs1 (centres undefined),101.8
CCN(CC)C(=O)c1sc2ncnc(N3CCN(c4ccccc4OC)CC3)c2c1C,98.6
N#CC1=C(N)SC(N)=C(C#N)C12C(=O)Nc1ccccc12,115.4
O=c1ccn(-c2ccc(Cl)cc2)nc1-c1nc(-c2ccc3c(c2)OCO3)no1,100.4
COc1ccc(C(=O)N2CCC(c3nc(-c4ccc(NC(C)=O)cc4)no3)CC2)c(OC)c1,99.2
CCCCOc1ccc(C2CC(=O)Nc3c2c(C)nn3-c2ccc3nnc(C)n3n2)cc1OC (centres undefined),104.2
CC1CCN(c2cc(N3CCN(C(=O)c4ccc(F)cc4F)CC3)c([N+](=O)[O-])cc2F)CC1,113.7
CC(C)c1ccc(C#N)c(SCC(=O)Nc2ccc(C(=O)O)cc2)n1,99.6
O=C(Nc1ccc(SCc2nnc(-c3ccccc3)o2)cc1)Nc1ccccc1Cl,100.8
N#CC1=C(N)Oc2n[nH]c(-c3cccc([N+](=O)[O-])c3)c2C1c1ccccc1OC(=O)N1CCOCC1 (centres undefined),102.9
COc1ccc(-c2nc(-c3c(OC)cc(OC)cc3OC)[nH]c2-c2ccc(OC)cc2)cc1,107.5
CC1CC(=O)Nc2cc(S(=O)(=O)CCC(=O)N3c4ccccc4CC3C)ccc2S1 (centres undefined),102.0
O=C(c1cn(-c2cc(N3CCSCC3)ncn2)cn1)N1CCN(c2ncccn2)CC1,106.0
COc1ccc2c(c1)-c1c(ssc1=Nc1cccc(C)c1C)C(C)(C)N2,105.2
Cc1ccc2oc(SCc3noc(CCC(=O)Nc4nnc(C)s4)n3)nc2c1,104.6
O=C(NCCN1CCOCC1)C1=C2CCCN2c2ccc(F)cc2S1(=O)=O,112.2
COc1cc(-c2nc(C=Nc3cccc(Cl)c3C)c(O)o2)cc(OC)c1OC,108.0

Random excerpt: four records from the list.
molecule,GIV Gai3 FP
O=C(NCCN1CCOCC1)C1=C2CCCN2c2ccc(F)cc2S1(=O)=O,112.2
CC(C)c1ccc(C#N)c(SCC(=O)Nc2ccc(C(=O)O)cc2)n1,99.6
COc1ccc2c(c1)-c1c(ssc1=Nc1cccc(C)c1C)C(C)(C)N2,105.2
COc1ccc(-c2nc(-c3c(OC)cc(OC)cc3OC)[nH]c2-c2ccc(OC)cc2)cc1,107.5
